High-throughput results as filed in PubChem BioAssay.
YopH inh: blocks Yersinia enterocolitica YopH tyrosine phosphatase | inhibition, %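 (about 10 µM by stock and volumes)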 | 140,000 compounds, 0.16% hits | fluorescence Ex485/Em525;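 active = inhibition of 50% or more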;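 also: controls were vehicle for no effect and minimum signal wells for full effect; inactives centre near -20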
RecA intein inh: blocks M. tuberculosis RecA intein splicing | cell-free RecA intein splicing, fluorescence | inhibition, %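 (about 9 µM by stock and volumes)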 | P9WHJ3 | AID 2221 | 290,000 compounds, 0.75% hits; in the data active = inhibition above about 30%; inconclusive = no clear call, values can overlap the other calls;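 also: 0% = vehicle wells and 100% = reference inhibitor control wells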
Target sequence (P9WHJ3 whole entry, looked up): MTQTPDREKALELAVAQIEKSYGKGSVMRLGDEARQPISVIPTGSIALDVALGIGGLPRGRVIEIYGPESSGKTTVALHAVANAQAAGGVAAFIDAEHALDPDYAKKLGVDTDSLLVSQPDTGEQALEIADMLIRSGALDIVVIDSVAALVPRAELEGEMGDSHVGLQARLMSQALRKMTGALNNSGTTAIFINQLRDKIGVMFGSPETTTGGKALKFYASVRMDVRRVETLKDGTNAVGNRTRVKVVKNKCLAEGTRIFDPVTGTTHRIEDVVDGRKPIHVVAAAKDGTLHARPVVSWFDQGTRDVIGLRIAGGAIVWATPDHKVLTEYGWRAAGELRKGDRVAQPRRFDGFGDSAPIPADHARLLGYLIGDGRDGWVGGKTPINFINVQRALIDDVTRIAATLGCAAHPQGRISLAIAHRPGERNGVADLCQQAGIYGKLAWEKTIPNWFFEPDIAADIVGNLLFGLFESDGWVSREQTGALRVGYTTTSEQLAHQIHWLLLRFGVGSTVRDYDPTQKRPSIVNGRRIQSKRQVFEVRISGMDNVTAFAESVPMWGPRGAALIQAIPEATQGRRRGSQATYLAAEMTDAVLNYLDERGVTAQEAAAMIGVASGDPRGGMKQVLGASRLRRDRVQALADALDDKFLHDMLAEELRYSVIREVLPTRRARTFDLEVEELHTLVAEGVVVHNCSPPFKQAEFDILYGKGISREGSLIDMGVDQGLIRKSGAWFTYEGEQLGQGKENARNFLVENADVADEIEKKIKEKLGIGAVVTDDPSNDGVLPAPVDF
Arbovirus anti: blocks arbovirus infection. arbovirus infection cell-based antiviral screen. inhibition, % at 10 µM. 200,000 compounds, 0.37% hits. AID 1251;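 active = inhibition from about 30%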;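 also: bluetongue infection of BSR cells; cell survival read as ATP light after 72 h; 0% = infected wells without compound and 100% = uninfected wells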
Mtb H37Rv: M. tuberculosis H37Rv growth inhibitors, H37Rv strain (AID 1626); M. tuberculosis H37Rv growth inhibition; higher % means a stronger effect; inhibition, % at 10 µM; hits with a dose series show IC50 in µM; 220,000 compounds, 0.95% hits;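 active = confirmed in a dose series; inconclusive = inhibition above 80% but not taken into the dose series; inactive = below 80% or under 30% at every dose of the series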;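 also: bacteria incubated seven days before Alamar blue readout; 0% = bacteria only wells and 100% = bacteria with antibiotic wells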
Mtb betalactam: beta-lactam sensitization of Mtb H37Rv; M. tuberculosis H37Rv growth with meropenem, percent inhibition; hits of this screen are not shown here; inhibition, % at 25 µM; 330,000 compounds, 0.27% hits; AID 434955;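 active = about 74% or more and at least 40 points above the plate without the antibiotic, then above 30% in a dose series; inconclusive = first-round hits that could not be retested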;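 also: growth measured after seven days incubation then overnight dye step; 0% = bacteria only wells and 100% = bacteria with antibiotic; twin plates without the antibiotic show which effects depend on it; some results filed as inactive read as strong as hits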
Arbovirus anti repeat: also measured in Arbovirus anti; calls as there; inhibition, %; measured here: 10K subset replicate screen; many hits read low in the repeat;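 first of two repeat runs on a subset; 0% = infected and 100% = uninfected wells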
* = called active by the depositor; ? = inconclusive; nt = no result given.

SMILES	YopH inh	RecA intein inh	Arbovirus anti	Mtb H37Rv	Mtb betalactam	others
COc1ccc(OCCCC(=O)OCC(=O)NNC(=O)c2ccc([N+](=O)[O-])cc2)cc1	nt	0.3	nt	nt	10
CCn1nnnc1SCC(=O)NCc1ccco1	-24	nt	5	-3%	-3
CCOc1cc2[nH]c(=S)n(Cc3ccc(C)o3)c(=O)c2cc1OCC	-26	-2.2	3	6%	56
COc1cc(C(=O)Nc2nc(-c3ccc(F)cc3)cs2)ccc1OCC(=O)N1CCOCC1	2	-1.2	83*	8%	9
O=C(c1ccsc1)N1CCCC(Nc2ccc(F)c(F)c2)C1 (centres undefined)	nt	1.3	nt	nt	4
Cc1cccc(Oc2ccccc2NC(=O)CN2C(=O)NC3(CCCC3)C2=O)c1	nt	3.2	nt	nt	0
Clc1ccc(N=c2ssnc2Cl)nc1	nt	-8.5	-29	-1%	-7
CCOC(=O)c1c(C)sc2c1N(C(=O)CN(CC)CC)c1ccccc1S2	36	-1.7	-8	-8%	0
CCN1C(=O)/C(=C/c2ccc(N3CCCC3)cc2)NC1=S	-26	-1.7	4	38%	-1
COC(=O)c1cccc2nc3c(C(C)O)cccc3nc12 (centres undefined)	nt	2.1	nt	1%	-6
COc1ccc(C/C(O)=C(\C#N)c2nc3ccccc3[nH]2)cc1OC	-14	-7.1	7	5%	45	Arbovirus anti repeat=-4
Cc1ccc(C(C(=O)NC2CCCC2)N(C(=O)CNC(=O)c2cccs2)c2cccnc2)o1 (centres undefined)	-18	1.9	1	-9%	0
O=C(Nc1ccc(Cl)cc1)OC1CN2CCC1CC2 (centres undefined)	nt	-0.9	nt	11%	-8
O=C(/C(=C/c1ccccc1)n1cncn1)c1ccc(Cl)cc1Cl	-45	-1.9	5	6%	1
CCOC(=O)CCC(NC(=O)CCC(=O)NC(CCC(=O)OCC)C(=O)OCC)C(=O)OCC (centres undefined)	-15	0.1	6	3%	-6
Cn1c(CN2CCOCC2)nc2cc(NC(=O)c3ccccc3Cl)ccc21	0	2.1	-4	0%	-3
O=C(O)CSc1nc2sc3c(c2c(=O)n1-c1ccccc1)CCC3	nt	1.6	nt	nt	-7
Cc1ccc(NC(=O)c2cc([N+](=O)[O-])ccc2N2CCCC2)cc1	nt	3.6	-5	24%	86
COc1ccc(OC)c(NC(=O)CSc2nc3n[nH]c(C)c3c(=N)n2-c2cccc(Cl)c2C)c1	nt	-2.7	nt	nt	-6
Cn1c(=O)c([N+](=O)[O-])c(NC2CCS(=O)(=O)C2)c2ccccc21 (centres undefined)	nt	-4.8	nt	-13%	-5
Cc1cc(C(=O)CSc2nc3ccccc3o2)c(C)n1C1CC1	-20	nt	18	-11%	-3
C=CCNC(=O)c1ccc(C2SCC(=O)N2Cc2ccco2)cc1 (centres undefined)	nt	-1.9	6	2%	-7
COc1ccc(CCNC(=O)C(=O)NCC2OCCN2S(=O)(=O)c2ccc(OC)c(OC)c2)cc1OC (centres undefined)	nt	-8.9	nt	nt	-3
Nc1nonc1-n1nnc(C(=O)N/N=C/c2ccc(Cl)cc2)c1-c1ccc2c(c1)OCO2	nt	-1.6	nt	nt	5

Overlap with the part before: four entries, followed by the next part.
SMILES	YopH inh	RecA intein inh	Arbovirus anti	Mtb H37Rv	Mtb betalactam	others
Cc1cc(C(=O)CSc2nc3ccccc3o2)c(C)n1C1CC1	-20	nt	18	-11%	-3
C=CCNC(=O)c1ccc(C2SCC(=O)N2Cc2ccco2)cc1 (centres undefined)	nt	-1.9	6	2%	-7
COc1ccc(CCNC(=O)C(=O)NCC2OCCN2S(=O)(=O)c2ccc(OC)c(OC)c2)cc1OC (centres undefined)	nt	-8.9	nt	nt	-3
Nc1nonc1-n1nnc(C(=O)N/N=C/c2ccc(Cl)cc2)c1-c1ccc2c(c1)OCO2	nt	-1.6	nt	nt	5
COc1ccc(NC(=O)CN(c2ccc(OC)c(Cl)c2)S(=O)(=O)c2ccccc2)c(OC)c1	nt	6.2	nt	nt	-8
COC(=O)c1ccc(CSc2nnc(-c3c[nH]c4ccccc34)n2-c2ccccc2)cc1	-14	1.9	4	3%	0
C=CCn1c(SCC(=O)NC(=O)c2cccc([N+](=O)[O-])c2)nnc1-c1ccccc1	-22	-2.6	0	-10%	-4
COc1ccc2nc3cc(Cl)ccc3c(Nc3cc(CN4CCCC4)c(O)c(CN4CCCC4)c3)c2n1	nt	23	nt	nt	12
COc1ccc(N(C)S(=O)(=O)c2cccc(C(=O)NCC3CCCCC3)c2)cc1	nt	7.2	-2	7%	nt
CC(=O)N1CCC[C@H]1C(=O)O	nt	-2.4	11	0%	3
COc1ccc(CCNC(=O)c2cc3c(=O)n4ccccc4nc3n(CCN3CCOCC3)c2=N)cc1	nt	-20	nt	nt	10
O=C(CN(Cc1ccc(F)cc1)C(=O)CNS(=O)(=O)c1ccc(F)cc1)NCc1ccco1	nt	-0.5	nt	nt	2
Cc1cccc(C)c1NC(=O)CNC(=O)CCC(=O)N1CCOCC1	nt	1.6	nt	nt	-8
CN(C)c1cccc(C(=O)OCC(=O)N(C)c2ccccc2)c1	nt	-0.3	nt	nt	8
COC(=O)c1cc(NC(=S)NCc2ccc(Cl)cc2)cc(C(=O)OC)c1	-18	3.8	32*	?	43
OCC1(CCc2ccccc2)CCN(Cc2cccn2-c2cccnc2)CC1	nt	2.6	7	4%	0
Cc1ccc(S(=O)(=O)N(C)CCCC(=O)Nc2cc(C)ccc2C)cc1	-9	-0.8	-5	nt	-13
CCn1cc(/C=C2\SC(=O)N(CC(=O)Nc3ccc4c(c3)OCO4)C2=O)c2ccccc21	-15	nt	-2	0%	7
Cc1ccc(SCCN2CCN(CC(C)C)CCC2=O)cc1	nt	0.3	nt	-2%	nt
CSc1ccccc1NC(=O)c1ccc(N2CC3CC(C2)c2cccc(=O)n2C3)c(NC(=O)c2ccncc2)c1 (centres undefined)	nt	0.6	nt	nt	7
COc1ccc(-c2cc(C(F)(F)F)nc(S(=O)(=O)CCCC(=O)Nc3cccnc3Cl)n2)cc1OC	nt	nt	-36	-2%	nt
CC(=O)NC(Cc1ccc(C(C)C)cc1)C(=O)NC1CCN(c2nc(C)cc(C)n2)CC1 (centres undefined)	-33	-1.1	7	4%	51
NC(=O)NCC(=O)N1CCC(C(O)(c2ccccc2)c2ccccc2)CC1	nt	-0.7	nt	-7%	-5
CCCCNC(=O)CSc1nc2ccc(NC(=O)CSc3nnc(N)s3)cc2s1	-22	-1.0	3	2%	14
O=C(O)CCC(=O)NNC(=O)c1cccs1	nt	1.0	1	-11%	14
CNC(=S)N1CCC(NC(=O)C(Cc2ccc(OC)cc2)NC(C)=O)CC1 (centres undefined)	nt	-1.2	nt	nt	7
O=C1c2ccccc2C(=O)N1Cc1nc2ccccc2c(=O)n1CCCn1ccnc1	-9	0.2	2	4%	nt	Arbovirus anti repeat=8
C[n+]1ccccc1C1CCCC/C1=N\Nc1ccc([N+](=O)[O-])cc1[N+](=O)[O-] (centres undefined)	4	3.1	-11	-1%	1
CCCn1nnnc1SCC(=O)N(C(C)C)C(C)C	-24	0.6	9	0%	-2
Cc1ccc(S(=O)(=O)/N=C(\c2ccc(Cl)cc2)N2CCOCC2)cc1	-34	5.1	2	-4%	1
COc1ccc(/C=N/n2cncn2)cc1COc1ccc(NC(C)=O)cc1	1	-4.9	2	nt	0
O=C(Cn1nnc(-c2ccccc2)n1)N/N=C/c1cc([N+](=O)[O-])c(Cl)cc1Cl	-44	nt	1	-9%	-4
Cc1cccn2cc(-c3cc4ccccc4oc3=O)nc12	nt	-5.8	-6	-7%	68
COC(=O)c1c(C)nc(C)c(C(=O)OC)c1-c1ccsc1	nt	-1.6	nt	-13%	-7
COC(=O)c1sccc1NC(=O)Nc1ccccc1C	nt	1.9	nt	nt	-12
CCc1ccc(OCC(=O)O/N=C(\N)c2ccncc2)c(Br)c1	nt	5.5	nt	nt	4
O=C(NCc1nc2ccccc2[nH]1)C1=C[C@@H](c2ccc(C(F)(F)F)cc2)C[C@@H](OCCCCO)O1	nt	3.8	nt	2%	9
COc1ccc(O)c(/C=N/NC(=O)CN2CCS(=O)(=O)CC2)c1	nt	-9.4	nt	nt	?
CCN(CC)C(=O)c1ccc2c(=O)n(Cc3cccc(Br)c3)c(=S)[nH]c2c1	nt	-1.3	nt	nt	-3
CCOC(=O)c1cccc(NC(=O)CCNS(=O)(=O)c2ccc3c(c2)CCN3C(=O)CC)c1	-27	-1.1	6	-9%	-7

The last 2 records of the section before come first, to join the parts:
SMILES	YopH inh	RecA intein inh	Arbovirus anti	Mtb H37Rv	Mtb betalactam	others
CCN(CC)C(=O)c1ccc2c(=O)n(Cc3cccc(Br)c3)c(=S)[nH]c2c1	nt	-1.3	nt	nt	-3
CCOC(=O)c1cccc(NC(=O)CCNS(=O)(=O)c2ccc3c(c2)CCN3C(=O)CC)c1	-27	-1.1	6	-9%	-7
O=C(NCc1ccco1)Nc1ccc(OC(F)(F)F)cc1	nt	2.2	nt	-4%	-3
Cc1ccc2c(c1)sc[n+]2Cc1ccccc1	-21	0.1	-9	3%	4
CCn1c(=O)c2cc(S(=O)(=O)NCc3ccccc3)ccc2n(CC)c1=O	36	nt	-7	-11%	0
COc1ccc2[nH]cc(CCNC(=O)C3CCCNC3=O)c2c1 (centres undefined)	-52	-1.2	3	3%	1	Arbovirus anti repeat=-2
Cc1cc(C(=O)CCl)c(C)n1Cc1ccco1	nt	18	-31	3.3µM*	100
COc1cccc(CN2C(=O)[C@@H]3Cc4c([nH]c5ccccc45)C(C)(C)N3C2=O)c1	nt	5.6	nt	42%	-7
Cc1ccc(N2C(=O)[C@@H]3[C@H](C2=O)[C@H]2C=C(C(=O)c4ccccc4)C=CN2[C@@H]3C(=O)c2ccc(Cl)cc2)cc1	8	nt	-6	1%	8
S=c1[nH]c(-c2ccccc2)cn1/N=C/c1ccc(Br)cc1	nt	5.4	-2	-6%	-5
C=CCSc1nc2ccccc2c(=O)n1C1CCOC(C)(C)C1 (centres undefined)	nt	10	nt	6%	0
O=C(Nc1nc(-c2cccc3ccccc23)cs1)c1cnccn1	-18	-3.2	-6	?	93
CCn1c(SCC(=O)N2CCN(c3ccccc3)CC2)nc2c(c1=O)SC(C)C2 (centres undefined)	17	14	-4	-6%	-2	Arbovirus anti repeat=-4
O=S(=O)(NCc1ccc(F)cc1)c1ccc2c(c1)OCCO2	-12	1.3	12	0%	10
O=c1[nH]c(=S)n(Cc2ccc(F)cc2)c(O)c1C=NCCCn1ccnc1	nt	-0.4	nt	-8%	-3
CCOC(=O)c1c(-c2ccc(F)cc2)csc1NC(=O)C1CCCO1 (centres undefined)	nt	4.1	-9	-6%	21
COc1ccc(Nc2nc(C(F)(F)F)nc(C)c2C#N)cc1	-17	-2.2	5	6%	-2
Cc1ccc(S(=O)(=O)N2CCN(C(=O)CSc3nc(N)cc(=O)[nH]3)CC2)c(C)c1	nt	-0.3	6	-4%	1
CC(C)(C)NC(=O)Cn1c(SCC(=O)NC2CC2)nc2ccccc21	nt	-1.3	nt	nt	1
CS(=O)(=O)N1CCC(C(=O)c2cccc(Cl)c2)CC1	2	-1.4	-6	-3%	-7
Cc1ccc(-c2nn(-c3ccccc3Cl)cc2C(=O)NCC2CCCO2)cc1 (centres undefined)	nt	1.8	nt	nt	-7
COc1cc2c(cc1OC)C1=C(C#N)CCC(=O)N1CC2	30	-0.4	6	2%	0
C=CCc1cccc(/C=N/NC(=O)CNc2cccc3ccccc23)c1O	-19	3.1	-31	5%	-2
CC(=O)Nc1nc2ccccc2n1Cc1ccccc1Cl	nt	2.7	nt	<0.2µM*	94
CC(=O)N1CCN(C(=O)CCN(c2ccccc2)S(=O)(=O)c2ccc(C)cc2)CC1	nt	0.5	nt	nt	2
O=C(CSc1nnc(C2CC2)n1-c1ccccc1)NCc1ccco1	0	-3.2	5	-10%	-3
Cc1nc2cc(-c3ccccc3)ccc2o1	-27	-4.2	-4	1%	-7
CN1C(=S)N(c2ccccc2)C(=O)/C1=C/c1ccco1	-6	4.2	7	-1%	2
CC(C)C(=O)Nc1ccc(N2CCN(C)CC2)c(F)c1	nt	2.1	12	-2%	5
O=C(Cc1ccccc1)NC1c2ccccc2-c2ccccc21	-32	-2.0	-4	8%	-5
COC(=O)/C(=N/Nc1ccccc1)N1CCCc2ccccc21	-31	3.9	20	39%	-5
Cc1cc(C)c2c(C)c(C(=O)NCc3ccc(S(N)(=O)=O)cc3)oc2c1	nt	-3.6	-9	2%	3
O=C(NC1CCCC1)c1cc2nc(-c3ccco3)cc(C(F)(F)F)n2n1	nt	-30	nt	nt	-3
COc1cc(/C=C/C(=O)OCC(=O)N(C)C2CCS(=O)(=O)C2)ccc1OC(F)F (centres undefined)	nt	-2.8	nt	nt	?
Cc1cccc2cc3c(N)c(C(=O)Nc4ccc(N5CCOCC5)cc4)sc3nc12	-21	-0.2	2	-2%	15
Cc1ccc(C(=O)NNC(=O)C2CCN(C(=O)OC(C)(C)C)CC2)cc1	nt	-1.0	nt	nt	2

Some of the compounds tested; count on the stated rates, not on these rows.
